Sa growth inh: inhibitors of Staphylococcus aureus growth at 42 °C; S. aureus RN4220 growth, OD600, 20 h; stronger effect = lower value; relative growth, % (test concentration not listed); hit rate 0.53% among 170,000; AID 720641;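 active = growth at 42 °C up to 50% and 20 or more points under that at 30 °C, or under 10% at both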;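 also: 300 nL library stock went into each well; scaled to the means of positive and negative controls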
GIV-Gai inh: GIV-Galpha-i interaction inhibition; P08753; Galpha-i3/FITC-GIV peptide fluorescence polarization, 90 min; stronger effect = lower value; scaled: aluminum fluoride 0%, vehicle 100%; hit rate 0.42% among 210,000; percent of control (FP), % (test concentration not listed);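 active = replicate mean at 85% of control or lower, very high polarization wells dropped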;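 also: wells of about 15 µL received 100 nL stock; the first replicate is given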
Target sequence (P08753 whole entry, looked up): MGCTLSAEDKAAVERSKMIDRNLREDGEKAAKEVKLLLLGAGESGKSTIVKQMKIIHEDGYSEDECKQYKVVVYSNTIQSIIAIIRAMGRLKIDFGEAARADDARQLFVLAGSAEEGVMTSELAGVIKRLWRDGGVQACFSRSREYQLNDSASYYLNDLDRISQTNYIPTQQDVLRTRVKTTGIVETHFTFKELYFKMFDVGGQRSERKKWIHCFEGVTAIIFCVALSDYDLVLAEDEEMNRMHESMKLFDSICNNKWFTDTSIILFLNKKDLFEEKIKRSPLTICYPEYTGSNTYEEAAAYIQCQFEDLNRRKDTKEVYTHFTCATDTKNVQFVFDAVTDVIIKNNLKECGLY
HCMV NEC inh: cytomegalovirus nuclear egress complex inhibition; inhibition, % (no concentration beside the values); HTRF UL50-UL53 interaction, normalized percent inhibition; AID 1918969; hit rate 0.15% among 190,000;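 active = both replicates at 50% or more, plus weaker picks with an unusually low signal ratio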;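 also: stock transfer was 100 nL into about 20 µL; 0% = negative control wells and 100% = wells with untagged competitor protein; inactives centre near -12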
Sa growth inh second temp: further read-out of Sa growth inh, marked with its call; relative growth, %; measured here: growth at 30 °C;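 optical density after 20 h as mean of two plates; 100% = untreated growth and lower means inhibition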
Numbers without * were called inactive; x = no result given; & = joins results of further samples.

Each structure is followed by: Sa growth inh | Sa growth inh second temp | GIV-Gai inh | HCMV NEC inh
CN(C(=O)c1cc2nc(-c3ccco3)cc(C(F)(F)F)n2n1)c1ccc(OC(F)(F)Cl)cc1
    97.6 | 102.6 | 101.4 | 20.0
O=C(CN1c2cccc3cccc(c23)S1(=O)=O)NCc1ccccc1
    99.7 | 77.3 | 100.1 | x
CN(C)c1ccc(/C=C(\C#N)S(=O)(=O)c2cccs2)cc1
    98.4 | 83.7 | 112.0 | 5.0
O=C(O)C1C2CCCCC21 (stereo not given)
    117.0 | 92.3 | 105.6 | -20.9
Cc1cc(NC(=O)C2CCCCC2)n(-c2ncnc3c2cnn3-c2ccc(F)cc2)n1
    x | x | 102.8 | 6.2
NC(=O)c1nc(-c2cccnc2)nc2c1[nH]c(=O)n2-c1ccc(Cl)cc1
    x | x | 105.5 | -8.7
COc1cc(/C=C/C2=NC(=O)C(C)(C)O2)ccc1O
    100.6 | 74.5 | x | -47.9
COC(=O)N/N=C/c1cccs1
    93.4 | 81.2 | 98.3 | -74.5
CCc1ccc(CNC(=O)CCn2nc(C)c3c(C)n(-c4ccccc4)nc3c2=O)cc1
    86.1 | 95.0 | 92.8 | x
CC1CC(c2ccccc2)n2ncnc2N1C(=O)c1ccccc1 (stereo not given)
    101.6 | 88.6 | 99.7 | -18.7
CCOc1cc2c(cc1OCC)C1C(C(=O)N3CCC(Cc4ccccc4)CC3)c3ccccc3C(=O)N1CC2 (stereo not given)
    x | x | 94.8 | -27.2
O=C(Cn1cc(S(=O)(=O)Cc2ccc(F)cc2)c2ccccc21)NCc1ccccc1
    105.7 | 87.0 | 100.7 | x
O=C(c1cc(=O)n2c(nc3ccccc32)s1)N1CCN(c2ccccn2)CC1
    x | x | 94.9 | -33.6
CC1CCN(C(=O)c2ccc3c(c2)N(Cc2ccccc2F)C(=O)c2ccccc2S3(=O)=O)CC1
    97.3 | 86.0 | 101.4 | -29.7
CC(CNC(=O)c1ccc2nc(CCc3ccccc3)oc2c1)c1ccccc1 (stereo not given)
    82.9 | 89.9 | 99.3 | x
c1csc(-c2ccn[nH]2)c1
    81.4 | 88.0 | 99.8 | x
Cc1cc(C)c(/C=N/NC(N)=O)c(C)c1/C=N/NC(N)=O
    91.0 | 101.4 | 97.9 | -21.5
CCOC(=O)CC1c2cc(OCC)c(OCC)cc2CCN1C(=O)Nc1cccc(Cl)c1 (stereo not given)
    83.7 | 71.6 | 101.3 | x
O=C(Nc1cc(F)ccc1F)c1cc(-c2ccc(F)cc2)nc2ccccc12
    103.7 | 78.7 | 105.2 | x
Cc1cccc(-n2cnc3cc(C(=O)NC4CCCC4)ccc32)c1
    88.2 | 67.2 | 103.1 | x
O=C(Cc1n[nH]c(=O)c2ccccc12)OCc1nnc(-c2ccc(Cl)cc2)o1
    76.2 | 93.1 | x | -17.8
CCc1ccccc1NC(=O)CSc1ncc2c(n1)-c1ccccc1N(C)S2(=O)=O
    112.2 | 98.6 | 107.9 | x
Cc1ccc2c(c1)C(c1ccccc1)N(C(=O)Cc1ccc(F)cc1)CC(=O)N2 (stereo not given)
    111.2 | 82.3 | 103.8 | -3.4
COc1cc(NC(=O)c2nn(-c3ccc(C)cc3)c(=O)c3c2c2ccccc2n3C)cc(OC)c1OC
    99.1 | 90.7 | 104.1 | -25.5
CCOC(=O)C1CC(=O)C(C(=O)OCC)CC1=O (stereo not given)
    83.1 | 85.9 | 95.2 | -16.9
CCOC(=O)c1ccc(NC(=O)c2c(C)nn(-c3ccc(F)cc3)c2-n2cccc2)cc1
    93.0 | 90.0 | 100.9 | x
Cc1ccc(COc2ccc(-c3cc(C(F)(F)F)n4nc(C)cc4n3)cc2)cc1
    87.8 | 103.5 | 108.1 | 0.4
COc1cc(OC)c(NC(=O)c2ccc(-n3nnc4cccnc43)cc2)cc1Cl
    x | x | 104.4 | -26.6
N#CCc1ccc(NC(=O)C2=CCCCC2C(=O)O)cc1 (stereo not given)
    90.7 | 87.0 | 103.1 | -24.7
Cc1cc(OC(C)C(=O)Nc2ccc3c(c2)NC(=O)CO3)ccc1Cl (stereo not given)
    x | x | 102.9 | -17.0
Cc1cc(C(=O)COc2ccc(NC(=O)c3ccco3)cc2)c(C)n1Cc1ccccc1
    98.5 | 93.8 | x | 4.4
CCc1ccc(NC(=O)N2CCN(Cc3nc4ccc(C)cc4o3)CC2)cc1
    96.8 | 90.6 | 104.2 | x
O=C(NCCc1csc(-c2ccc(Cl)cc2)n1)C1CCCC1
    x | x | 100.7 | -27.7
CCn1c(CN(c2ccc(F)cc2)S(C)(=O)=O)nnc1SCC(=O)Nc1ccc(F)cc1F
    x | x | 103.2 | 1.8
Cc1ccc(-c2nnn(CC(=O)c3ccc(Cl)s3)n2)cc1
    107.6 | 83.1 | x | -42.2
CCc1c(C)nc2ncnn2c1Nc1ccc(F)cc1C
    x | x | 101.6 | 7.3
Cc1nn(C(C)(C)C)c2c1C(c1ccncc1)C1=C(CCCC1=O)N2 (stereo not given)
    85.0 | 103.4 | x | -6.1
CCN(CC)c1cc(C)c2cc(NC(=O)c3ccccc3OC)ccc2n1
    107.5 | 86.1 | 104.8 | 1.9
CCn1ccnc1C(O)c1ccc(OC)cc1 (stereo not given)
    113.2 | 81.0 | x | -0.9
c1ccc(NCCCNc2ccccc2)cc1
    116.3 | 103.4 | 109.2 | -0.1
Cc1n[nH]c(C)c1S(=O)(=O)N1CCCC(C(=O)NC2CCCCC2)C1 (stereo not given)
    88.2 | 83.7 | 95.8 | x
Cn1c(O)c(-c2cc(-c3ccc(O)cc3)n3ncnc3n2)c(=O)n(C)c1=O
    x | x | 116.9 | -29.8
CCc1ccc(NC(=O)CC(NCc2ccco2)C(=O)O)cc1 (stereo not given)
    109.0 | 89.8 | 104.4 | -13.4
CC(C)C1CC(=O)C=C2CCCCC21 (stereo not given)
    93.6 | 78.9 | 104.5 | -17.6
COc1cccc(NC(=O)CCc2nc3c(C)nn(-c4ccc(C)cc4)c3n(C)c2=O)c1
    97.4 | 90.3 | 105.9&104.8 | -31.2
CCCn1c(SCC(=O)c2cc(C)n(C3CC3)c2C)nc2cc(S(N)(=O)=O)ccc21
    73.3 | 88.1 | x | -42.3
Cc1cccc(C(=O)NC(C(=O)O)C(C)C)c1 (stereo not given)
    116.2 | 91.7 | x | -8.8
COc1ccc(C2C(C(=O)N3CC(C)CC(C)C3)c3ccccc3C(=O)N2c2ccc(OC)cc2)cc1 (stereo not given)
    89.0 | 54.7 | 100.1 | x
CSc1cccc(NC(=O)c2ccc(=O)n(C)n2)c1
    94.9 | 88.8 | x | -43.4
CCCn1c(=O)c2ccc(C(=O)NC(C)C)cc2n2c(SCc3cccc(F)c3)nnc12
    x | x | 110.0 | -22.4
CC(=O)NCCc1ccc(-c2csc(N)n2)cc1
    97.6 | 91.2 | x | -46.2
COc1ccc(-n2nc(C(=O)NCC(=O)NCc3cccnc3)c3ccccc3c2=O)c(OC)c1
    89.8 | 88.8 | 107.3 | -15.4
CCCCNC(=O)c1cc(S(=O)(=O)N2CCCC(C)C2)ccc1F (stereo not given)
    94.3 | 91.4 | 107.7 | -33.7
CCCC(=O)NCCc1ccc(F)cc1
    103.6 | 111.1 | 106.5 | 1.7
CC(C)C(=O)Nc1cccc(-c2nc3ccccc3s2)c1
    113.5 | 85.5 | 100.5 | x
CC(=C\c1ccccc1)/C=C1/SC(=S)N(CCC(=O)N2CCCc3ccccc32)C1=O
    x | x | 102.4 | 0.4
Cc1ccc(S(=O)(=O)N2CCN(C3CC(=O)N(Cc4ccccc4)C3=O)CC2)cc1C (stereo not given)
    105.9 | 90.1 | x | -9.1
NS(=O)(=O)c1ccc(CCN[C@H]2CS(=O)(=O)C[C@@H]2S(=O)(=O)c2ccc(F)cc2)cc1
    x | x | 100.9 | -25.1
O=C(NC1CC1)c1ccc(C2SCC(=O)N2Cc2ccco2)cc1 (stereo not given)
    89.7 | 82.0 | 102.7 | -9.1
CCN(CC)C(=O)CSc1nc2ccccc2c(=O)n1CCc1ccc(OC)c(OC)c1
    97.3 | 80.9 | 100.2 | -0.1

Looked up by compound from the list above:
Each structure is followed by: Sa growth inh | Sa growth inh second temp | GIV-Gai inh | HCMV NEC inh
Cc1ccc(-c2nnn(CC(=O)c3ccc(Cl)s3)n2)cc1
    107.6 | 83.1 | x | -42.2
COc1cc(/C=C/C2=NC(=O)C(C)(C)O2)ccc1O
    100.6 | 74.5 | x | -47.9

(next part)
Each structure is followed by: Sa growth inh | Sa growth inh second temp | GIV-Gai inh | HCMV NEC inh
CSc1ccc(Cn2cccc2C2=NC(c3ccccc3)CO2)cc1 (stereo not given)
    89.1 | 87.4 | 103.7 | x
CCCc1cc(=O)[nH]c(SCc2ccccn2)n1
    89.0 | 82.9 | 109.3 | -31.7
C=CCN(CC=C)C(=O)C(C)N1CCN(C2CCCCC2)CC1 (stereo not given)
    118.6 | 92.9 | 108.5 | -0.3
O=C(O)/C=C/C(=O)Nc1ccc(OC(F)(F)F)cc1
    99.5 | 112.1 | 105.8 | -2.3
CCCCc1nn2c(=O)cc(COC(=O)c3ccc(NC(=O)c4ccccc4Cl)cc3)nc2s1
    110.4 | 93.2 | 97.9 | x
COCCNC(=O)CSc1nc(-c2ccc(C)cc2)[nH]c1-c1ccccc1
    x | x | 97.4 | -9.1
CC1Cc2ccccc2N1C(=O)CSc1nnnn1Cc1ccccc1 (stereo not given)
    108.3 | 93.5 | 102.4 | 8.8
COC(=O)c1cc2c(s1)CN(c1cc(C)cc(C)c1)C2
    83.9 | 70.6 | 119.9 | x
CCN(CCCNC(=O)Cn1ncc2c3ccccc3n(C)c2c1=O)Cc1ccccc1
    112.8 | 89.4 | 101.2 | -14.9
COc1cc(Cl)c(C)cc1NC(=O)CCc1c(C)nc2c3cccnc3nn2c1C
    100.2 | 93.6 | 105.8 | 10.6
CCOC(=O)CSc1nc(Nc2ccccc2)c2cnc(N3CCOCC3)nc2n1
    86.0 | 81.0 | 100.6 | -11.4
CCOc1ccc(CCC(=O)O)cc1
    119.1 | 96.9 | 102.2 | -5.0
CC1=C(c2ccc(C)c(C)c2)S(=O)(=O)N(Cc2ccc(C(=O)NCc3ccc(F)cc3)cc2)C1=O
    x | x | 98.5 | -12.9
COCCNC(=O)c1ccc2c(=O)n3c(nc2c1)CCCCC3
    104.4 | 90.5 | 104.2 | -2.7
Cc1oc2ncnc(N3CCC(C(=O)Nc4cccc(Cl)c4)CC3)c2c1C
    x | x | 99.7 | -22.9
COc1ccc(C2CC(=O)C3=C(C2)NC(C)=C(C(=O)OC(C)C)C3c2ccc([N+](=O)[O-])cc2)cc1OC (stereo not given)
    x | x | 102.7 | -26.2

Some of these compounds in order of SMILES length, descending.
Each structure is followed by: Sa growth inh | Sa growth inh second temp | GIV-Gai inh | HCMV NEC inh
NS(=O)(=O)c1ccc(CCN[C@H]2CS(=O)(=O)C[C@@H]2S(=O)(=O)c2ccc(F)cc2)cc1
    x | x | 100.9 | -25.1
CC1CCN(C(=O)c2ccc3c(c2)N(Cc2ccccc2F)C(=O)c2ccccc2S3(=O)=O)CC1
    97.3 | 86.0 | 101.4 | -29.7
COc1cccc(NC(=O)CCc2nc3c(C)nn(-c4ccc(C)cc4)c3n(C)c2=O)c1
    97.4 | 90.3 | 105.9&104.8 | -31.2
CCOC(=O)CC1c2cc(OCC)c(OCC)cc2CCN1C(=O)Nc1cccc(Cl)c1 (stereo not given)
    83.7 | 71.6 | 101.3 | x
COc1cc(OC)c(NC(=O)c2ccc(-n3nnc4cccnc43)cc2)cc1Cl
    x | x | 104.4 | -26.6
O=C(Nc1cc(F)ccc1F)c1cc(-c2ccc(F)cc2)nc2ccccc12
    103.7 | 78.7 | 105.2 | x
CCc1ccc(NC(=O)N2CCN(Cc3nc4ccc(C)cc4o3)CC2)cc1
    96.8 | 90.6 | 104.2 | x
CCCCNC(=O)c1cc(S(=O)(=O)N2CCCC(C)C2)ccc1F (stereo not given)
    94.3 | 91.4 | 107.7 | -33.7
C=CCN(CC=C)C(=O)C(C)N1CCN(C2CCCCC2)CC1 (stereo not given)
    118.6 | 92.9 | 108.5 | -0.3
COCCNC(=O)c1ccc2c(=O)n3c(nc2c1)CCCCC3
    104.4 | 90.5 | 104.2 | -2.7
O=C(O)/C=C/C(=O)Nc1ccc(OC(F)(F)F)cc1
    99.5 | 112.1 | 105.8 | -2.3
CC(C)C(=O)Nc1cccc(-c2nc3ccccc3s2)c1
    113.5 | 85.5 | 100.5 | x
CSc1cccc(NC(=O)c2ccc(=O)n(C)n2)c1
    94.9 | 88.8 | x | -43.4
CCc1c(C)nc2ncnn2c1Nc1ccc(F)cc1C
    x | x | 101.6 | 7.3
CC(C)C1CC(=O)C=C2CCCCC21 (stereo not given)
    93.6 | 78.9 | 104.5 | -17.6
CCCC(=O)NCCc1ccc(F)cc1
    103.6 | 111.1 | 106.5 | 1.7
c1csc(-c2ccn[nH]2)c1
    81.4 | 88.0 | 99.8 | x
O=C(O)C1C2CCCCC21 (stereo not given)
    117.0 | 92.3 | 105.6 | -20.9

Bioassay records: PubChem BioAssay, ICCB-Longwood Screening Facility, Harvard Medical School
